CBX7 inh: CBX7 chromodomain binding inhibitors, primary screen, biochemical, AlphaScreen. Chromobox protein homolog 7 (Homo sapiens), O95931. AlphaScreen His6-CBX7 / biotin-H3K27me3 peptide binding; active compounds read low. normalised signal (fraction of DMSO) (no concentration beside the values). 66,000 compounds, 1.1% hits. AID 1224903, 2016; in the data active = normalised signal below about 0.5;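 also: 100 nL library stock added to about 20 µL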
Target sequence (O95931 whole entry, looked up): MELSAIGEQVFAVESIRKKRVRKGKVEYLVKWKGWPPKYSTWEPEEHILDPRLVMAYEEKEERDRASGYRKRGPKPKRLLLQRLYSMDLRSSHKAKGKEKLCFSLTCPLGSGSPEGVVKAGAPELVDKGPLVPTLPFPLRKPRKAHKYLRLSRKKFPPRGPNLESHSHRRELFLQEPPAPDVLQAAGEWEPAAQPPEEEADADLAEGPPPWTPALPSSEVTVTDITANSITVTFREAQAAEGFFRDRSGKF
CBX7 inh z-score: recorded beside CBX7 inh, whose call it bears; z-score; measured here: z-score of CBX7 signal; some inactives read as strong as hits; reference of the scale not given here;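 same signal on another scale; lower means less binding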
Active calls of the source: *; & = joins results of further samples. Some of the compounds tested (hit frequency here may not be typical).

molecule	CBX7 inh	CBX7 inh z-score
COc1ccc(C2CC(=O)c3cnc(NCc4ccccc4)nc3C2)cc1 (configuration not stated)	1	0.35
O=C(CSc1oc(-c2ccccc2)nc1S(=O)(=O)c1ccc(Br)cc1)c1ccccc1	0.96	-1
Cc1ccc2c(c1)N(C(C)C(=O)NC1CC1)C(=O)CO2 (configuration not stated)	1	0.4
CC(C)OCCCNC(=O)c1cc(-c2cccnc2)nc2ccccc12	1.1	0.62
CCc1nnc(NC(=O)c2ccc(S(=O)(=O)N3CCCc4ccccc43)cc2)o1	0.047*	-11*
CCN(CC)S(=O)(=O)c1ccc2c(c1)N(CC(=O)Nc1c(C)cccc1C)C(=O)CS2	1	1.4
COc1ccccc1Nc1ncc(C(=O)NCCC2=CCCCC2)c2ccccc12	1	1.9
CCOCCCNC(=O)c1ccc2c(c1)ncn2-c1ccc(OCc2ccccc2)cc1	0.88	-3
Cc1ccc(CN2CC34C=CC(O3)C(C(=O)NCc3ccccc3)C4C2=O)cc1 (configuration not stated)	1	1.5
O=C1CN(C(=O)c2ccc(Cl)cc2Cl)C(c2ccccc2)c2cc(F)ccc2N1 (configuration not stated)	0.88	-0.25
CCCNC(=O)c1cc2c(s1)CSC2	1	0.56
COc1ccc(C2CC(c3ccc(OC(F)F)cc3)n3ncnc3N2)cc1 (configuration not stated)	0.97	-0.89
O=C(NC1CCCCC1)c1ccc2c(c1)N(Cc1ccccc1F)C(=O)CS2	1.2	2.4
CCN(CC)CCCNC(=O)C1CCN(Cc2nc(-c3cccc(Cl)c3)oc2C)CC1	1.9	8
CC(=O)Nc1ccc(S(=O)(=O)Nc2nc(C)cc(-n3nc(C)cc3C)n2)cc1	1.1	1.5
COc1ccc(Cl)cc1-n1c(C)nc2cc(C(=O)O)ccc21	1	0.28
Cc1ccc2c(c1)NC(=O)C(CC(=O)NCc1ccccn1)O2 (configuration not stated)	0.84	-0.96
COc1ccc(CCN2C(=O)N(c3ccc(C)cc3)C(=O)C2CC(=O)Nc2ccc(OC)cc2)cc1 (configuration not stated)	0.98	-0.19
CCc1cccc(C)c1Nc1c(-c2ccc(Cl)cc2)nc2nc(C)cc(C)n12	1	0.0079
CCCN(C(=O)Cc1c(C(=O)O)[nH]c2ccccc12)c1ccc(F)cc1	1	1.5
Cc1cc(C)cc(C(=O)NCCc2cc3ccc(C)c(C)c3[nH]c2=O)c1	0.98	-0.5
COc1cccc(C(=O)CCN2CCC(c3ccccc3)C2)c1 (configuration not stated)	1.4	1
O=C1c2ccccc2C(Nc2ccc(Br)cc2)N1Cc1ccccc1 (configuration not stated)	0.84	-2.3
COc1ccc(-c2cc(C(=O)N3CCN(c4ccccc4OC)CC3)no2)cc1OC	0.93	-0.75
CC(C)OCCCNC(=O)c1cc(=O)[nH]c2ccc(S(=O)(=O)N3CCCCC3)cc12	0.99	-0.059
COc1cccc(NC(=O)Cn2cc(S(=O)(=O)c3ccc(C)cc3)c(=O)c3cc(Cl)ccc32)c1	0.94	-0.89
COc1cc(NC(=O)c2c(-c3ccccc3Cl)noc2C)c2ncccc2c1	1.1	0.95
COc1ccc(S(=O)(=O)N2CC=C(C(=O)NCc3ccccc3OC)CC2)cc1	1	-0.014
CCN(CC)C(C(=O)NC1CCCC1)c1ccc(Cl)cc1 (configuration not stated)	1.1	1.4
CCOC(=O)c1nnn(-c2nonc2N)c1-c1ccc(OC)c(OC)c1	1.1	2.2
O=C(NCCCN1CCCC1=O)c1cc2c(s1)-c1ccccc1OC2	1	0.32
CC(NC(=O)c1cc(-c2ccc(Cl)c(Cl)c2)nc2ccccc12)c1ccccc1 (configuration not stated)	1.1	6.2
Cc1cccc(C)c1N1CCc2cn[nH]c21	1.1	1.9
COc1ccc2c(c1)-c1nc(NC(=O)c3cccc(C)c3)sc1CC2	1	0.17
COc1ccc(OCc2nn3c(-c4ccccc4Cl)nnc3s2)cc1	0.98	-0.86
COC(=O)Cn1c(=N)n(CCN2CCOCC2)c2ccccc21	0.99	-0.24
Cc1ccc2nc(-c3ccc(NC(=O)Nc4cccc(Cl)c4)cc3)sc2c1	1	0.0018
CCn1c(C(O)c2ccc(C)cc2)nc2ccccc21 (configuration not stated)	0.97	-0.62
CC(NS(=O)(=O)c1ccc(F)cc1)C(c1cccs1)N1CCOCC1 (configuration not stated)	0.99	-0.12
O=C(CCn1c(=O)c2sccc2n(Cc2cccc(F)c2)c1=O)NCc1ccccc1Cl	1	-0.077
COc1ccc(N2C(=O)CCC(C(=O)Nc3ccc(F)cc3)C2c2ccc(F)cc2)cc1 (configuration not stated)	1.1	1.3
COCCNC(=O)c1ccc(-c2nn(C)c(=O)c3ccccc23)cc1	1.1	0.66
Cc1cccc2sc(NC(=O)c3ccccc3C(=O)O)nc12	1	0.22
CCn1nnnc1-c1ccc(OC)c(S(=O)(=O)Nc2cccc(C(F)(F)F)c2)c1	0.89	-1.4
COCc1nnc(NC(=O)c2ccc(S(=O)(=O)N(C)c3ccccc3)cc2)o1	0.71	-7.9
CCOc1ccc(NS(=O)(=O)c2ccc3[nH]cc(C(=O)NC(C)CC)c(=O)c3c2)cc1 (configuration not stated)	0.88	-0.54
COc1cc(OC)c(NC(=O)c2cnn(-c3ccc(C)c(C)c3)c2C2CCNCC2)cc1Cl	0.95	-0.93
COc1ccccc1Nc1ncc(C(=O)NC2CCCCCC2)c2ccccc12	1.1	1.2
CCN1CCN(S(=O)(=O)c2ccc3c(c2)CCN3C(C)=O)CC1	1.2	2.1
Cc1ccc(Cn2cc(CCC(=O)NCc3ccccn3)c3ccccc32)cc1	0.56	-0.44

(further entries)
molecule	CBX7 inh	CBX7 inh z-score
COc1ccc2c(c1)CCc1c(C(=O)N3CCN(c4ccccc4OC)CC3)noc1-2	0.97	-0.34
CCOc1ccc(CCNC(=O)N(c2ccccc2)c2ccccc2)cc1OCC	0.78	-3.6
COc1ccc(NC(=O)C(NS(=O)(=O)c2ccc3c(c2)CCN3C(C)=O)C(C)C)cc1 (configuration not stated)	1	1.8
CCOC(=O)c1cnc2cc(Cl)c(OC)cc2c1N1CCN(c2ccc(F)cc2)CC1	0.81	-2.7
COc1cc(NS(=O)(=O)c2ccc(NC(=O)c3ccccc3OC)cc2)nc(OC)n1	1	0.037
OC(c1ccccc1)(c1ccccc1)c1nc2ccccc2[nH]1	0.88	-1.4
COC(=O)CNC(=O)c1sc2ncn(Cc3ccccc3Cl)c(=O)c2c1C	1	0.19
COc1ccc2c(c1)c(CC(=O)NCCC1=CCCCC1)c(C)n2C(=O)c1ccc(Cl)cc1	1	1.4
COc1cc2c(cc1OC)C(C(=O)NCCC1=CCCCC1)C1c3ccccc3CCN1C2=O (configuration not stated)	0.97	-0.45
COc1ccc(-c2nn(C)c(=O)c3ccccc23)cc1NC(=O)COc1ccccc1	0.97	-1.2
O=C(Nc1cccc(C(F)(F)F)c1)C1CCN(S(=O)(=O)c2cnc[nH]2)CC1	1	0.073
CN1CCN(c2ccccc2NC(=O)c2cc3sc(Cl)cc3n2C)CC1	0.96	-1.7
CCc1ccccc1NC(=O)C1CCCN(S(=O)(=O)c2cccc3cccnc23)C1 (configuration not stated)	0.78	-2.4
CC1(C(=O)NC2CCCCCC2)CCC(=O)N1CCC1=CCCCC1 (configuration not stated)	1.3	2.7
CCOC(=O)c1c(NC(=O)COc2ccc(-c3ccccc3)cc2)sc2c1CCC(C)C2 (configuration not stated)	1.2	3.3
CCCCN(CCCC)Cc1c(C(=O)OCC)nnn1-c1nonc1N	1	0.74
CCCOc1ccc(C(=O)Nc2cc(-c3nn4c(C)nnc4s3)ccc2C)cc1	1	-0.045
CCc1ccccc1Nc1cc(C(=O)NCc2cccnc2)c2ccccc2n1	1	-0.058
CCn1c(SCC(=O)NC2CCCCC2)nnc1-c1c[nH]c2ccccc12	1.1	0.86
CC(NC(=O)C(=O)N1CCCCC1)C(c1cccs1)N1CCN(c2ccccc2)CC1 (configuration not stated)	0.92	-0.81

7 entries from above in a different format.
Every second line gives: CBX7 inh, CBX7 inh z-score
CCc1ccccc1NC(=O)C1CCCN(S(=O)(=O)c2cccc3cccnc23)C1 (configuration not stated)
  0.78, -2.4
CCCCN(CCCC)Cc1c(C(=O)OCC)nnn1-c1nonc1N
  1, 0.74
CCCOc1ccc(C(=O)Nc2cc(-c3nn4c(C)nnc4s3)ccc2C)cc1
  1, -0.045
O=C(Nc1cccc(C(F)(F)F)c1)C1CCN(S(=O)(=O)c2cnc[nH]2)CC1
  1, 0.073
CCOC(=O)c1c(NC(=O)COc2ccc(-c3ccccc3)cc2)sc2c1CCC(C)C2 (configuration not stated)
  1.2, 3.3
CC1(C(=O)NC2CCCCCC2)CCC(=O)N1CCC1=CCCCC1 (configuration not stated)
  1.3, 2.7
CN1CCN(c2ccccc2NC(=O)c2cc3sc(Cl)cc3n2C)CC1
  0.96, -1.7

Next section:
molecule	CBX7 inh	CBX7 inh z-score
COc1ccccc1OCc1nc(C#N)c(N2CCN(C)CC2)o1	1.1	0.84
O=C(NC(=O)C1CCNCC1)c1cc2c(s1)CSC2	1	0.26
O=C(CCS(=O)(=O)c1ccc(Br)cc1)N1CCc2ccccc21	1	0.034
O=C(Cn1cnc2c(nnn2Cc2ccc(F)cc2)c1=O)NC1CCCCC1	0.84	-2.6
COC(=O)c1ccc(NC(=O)CN2C(=O)CC(c3ccccc3)Sc3ccccc32)cc1 (configuration not stated)	1	0.34
O=C(c1ccc2c(c1)N(Cc1cccc(F)c1)C(=O)c1ccccc1S2)N1CCc2ccccc2C1	0.98	-0.31
CCCCCCCOc1ccc(C(=O)Nc2nnc(C)s2)cc1	1.2	1.9
O=C(CC1Sc2ccc(C(F)(F)F)cc2NC1=O)Nc1ccccc1OC(F)F (configuration not stated)	1.1	2.2
CC(=O)NCc1nc2ccccc2n1Cc1ccccc1C	1	0.42
Cc1ccc(Nc2c(-c3ccsc3)nc3cccc(C)n23)cc1	0.92	-2.2

Whole records as entered above.
COc1ccc2c(c1)c(CC(=O)NCCC1=CCCCC1)c(C)n2C(=O)c1ccc(Cl)cc1 is entered as CBX7 inh = 1; CBX7 inh z-score = 1.4
OC(c1ccccc1)(c1ccccc1)c1nc2ccccc2[nH]1 is entered as CBX7 inh = 0.88; CBX7 inh z-score = -1.4
CC1(C(=O)NC2CCCCCC2)CCC(=O)N1CCC1=CCCCC1 (configuration not stated) is entered as CBX7 inh = 1.3; CBX7 inh z-score = 2.7

(next part)
molecule	CBX7 inh	CBX7 inh z-score
O=c1c2c(nc3c(-c4cccc(Br)c4)c[nH]n13)CCCC2	0.94	-0.99
O=C(COc1ccc(Cl)cc1)NCc1nnc(SCC(=O)Nc2nccs2)o1	0.7	-4.6
COc1ccc(CNC(=O)C2CCCN2S(=O)(=O)c2cccc3cccnc23)cc1 (configuration not stated)	0.94	-1.9
CCOc1cc(-c2nc3sc4c(c3c(=O)[nH]2)CCCC4)ccc1OCCOc1cc(C)ccc1C(C)C	1.1	1.9
COCCCNC(=O)c1cn(C)c(=O)c2c1c1ccccc1n2C	1.1	0.83
COc1ccc(NC(=O)C(c2ccccc2)N2CCOCC2)cc1 (configuration not stated)	0.99	-0.21
CCOc1ccc2nc(N3CCCC(C(=O)Nc4cc(Cl)c(OC)cc4OC)C3)sc2c1 (configuration not stated)	0.98	-0.5
COc1cc(C(=O)Nc2ccc3nc(N4CCCCC4)cc(C)c3c2)ccc1Br	1.1	0.94
CCCCCn1c(CCNC(=O)c2cccs2)nc2ccccc21	0.9	-1.4
CCN(CC)C(=O)c1cc2c(-c3ccc(OC)c(OC)c3)nn(C)c2s1	1	0.18
CC(=O)N1c2ccc(S(=O)(=O)NCCc3ccc(S(N)(=O)=O)cc3)cc2CC1C (configuration not stated)	1.3	1.1
Oc1ccccc1-c1nc2sccn2c1Nc1ccc2c(c1)OCCO2	0.84	-4.2
Cc1ccccc1Nc1c(-c2ccccc2F)nc2ccccn12	1	-0.0082
C=C(C)Cn1c(CCCNC(=O)c2ccc(Cl)cc2)nc2ccccc21	1.2	3
CNC(=O)CN1C(=O)COc2ccc(S(=O)(=O)N3CCOCC3)cc21	1	0.1
CCc1nnc(NC(=O)c2ccc(S(=O)(=O)N(CC)c3ccccc3)cc2)o1	0.073*	-1.6*
COc1cccc(C2=NOC(C(=O)NCc3ccc(F)cc3)C2)c1OC (configuration not stated)	1	1.7
Cc1ccc2[nH]c3c(c2c1)CCCC3N1CCOCC1 (configuration not stated)	1	0.24
COc1ccc(Br)cc1CN1C(=O)CCC1(C)C(=O)NC1CCCCCCC1 (configuration not stated)	0.96	-1.2
CC1CCCN(C(=O)c2cn(C3CCCCC3)c(=O)c3c2c2ccccc2n3C)C1 (configuration not stated)	1	0.88
COc1cc(CN2CCN(Cc3cccc(F)c3)CC2)cc(OC)c1OC	0.89	-1.8
CCN(c1cccc(C)c1)c1ncnc2c1cnn2-c1ccc(OC)cc1	0.82	-0.18
CC(C)(C)n1cnc2cc(NCc3cccs3)ccc21	0.91	-1.8
COc1ccccc1CNC(=O)CCc1c(C)nc2c(-c3ccccc3)c(C)nn2c1C	1	1.1
Cc1cc(NC(=O)CC2Nc3ccccc3NC2=O)no1 (configuration not stated)	1.1&1	0.68&0.028
O=C(COc1ccc(Cl)cc1Cl)NCC12C=CC(O1)C1C(=O)N(Cc3ccccc3)C(=O)C12 (configuration not stated)	0.98	-0.43
CCc1ccc(C(=O)CSc2n[nH]c(-c3ccncc3)n2)cc1	0.93	-0.15

Source: PubChem BioAssay
